NS1 inh: qHTS Assay for Inhibitors of Influenza NS1 Protein Function; AID 2326, 2010; Potency, µM (doses to about 46.1 µM), inactives show at the top dose activity, positive = more growth; 270,000 compounds, 0.4% hits; S. cerevisiae slowed by influenza A NS1, growth recovery by OD600; note: actives are rising curves; nearly all actives have a fitted effect of over 50% in size
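Compounds were scored for reversing the slow growth caused by influenza A NS1 in S. cerevisiae, measured by optical density at 600 nm. Assay medium contained 2% galactose at pH 6.0; NS1-free yeast of the same strain were the positive control.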
MARV entry inh: qHTS for inhibitors of binding or entry into cells for Marburg Virus; Potency, µM (titrated, usually from 37.8 µM), for the others: at the top dose activity change, negative = inhibition, most hits filed as inhibitors; 300,000 compounds, 1.8% hits; Marburg virus pseudotyped entry inhibition, cell reporter; control for the full effect not named in the record; about a third of the inactives were read at about 46 µM; active = well fitted inhibition curve with a large enough effect; inconclusive = small, poorly fitted or top-dose-only effect, or effect the other way; inactive = flat fitted curve, though single readings scatter; tested in HEK293 cells; about a fifth of its hits are not listed in these tables; note: % is set by controls: 0 for no effect and ±100 for the full control effect; luciferase read-out
2A StopGo: High Throughput Screening for Foot and Mouth Disease Virus Antivirals; Potency, µM (titrated, usually from 57.9 µM), for inactives: at the top dose signal change, negative = less light; 410,000 compounds, 1.2% hits; AID 1159524, 2015; human cells with a luciferase reporter of 2A StopGo recoding; control for the full effect not named in the record; active = well fitted falling curve with a large enough effect; inconclusive = small, poorly fitted or top-dose-only effect; inactive = no such curve, though single readings can be large or run the other way; tested in HEK293T cells; note: % is set by controls: 0 for no effect and ±100 for the full control effect; nearly all actives have a fitted effect of over 45% in size; luciferase light after 4 h
RE007 growth inh: qHTS Assay for Inhibitors of the HIV-1 protein Vpr | S. pombe RE007 Vpr strain, BacTiter-Glo ATP luminescence, 24 h; control for the full effect not named in the record | 360,000 compounds, 0.21% hits | Potency, µM (titrated, usually from 92.2 µM), for the others: top-dose activity change, negative = less growth; active = well fitted falling curve with a large enough effect; inconclusive = small, poorly fitted or top-dose-only effect; inactive = no such curve, though single readings can be large or run the other way;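 note: % is set by controls: 0 for no effect and ±100 for the full control effect; nearly all actives have a fitted effect of over 50% in size; the assay follows cell death caused by Vpr and the record does not say whether a fall means rescue or toxicity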
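Fission yeast strain RE007, carrying one chromosomally integrated HIV-1 vpr copy, was seeded at OD 0.01 in PMG+AL medium with 23 nL pinned compound. After 24 h at 30 °C and 99% humidity, viability was read by BacTiter-Glo luminescence.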
LASV entry inh: qHTS for Inhibitors of binding or entry into cells for Lassa Virus | Lassa virus pseudotype entry inhibition, cell reporter; control for the full effect not named in the record | Potency, µM (doses to about 37.9 µM), inactives show at the highest dose activity change, negative = inhibition, most hits filed as inhibitors | 300,000 compounds, 1.2% hits; active means well fitted inhibition curve with a large enough effect; inconclusive means small, poorly fitted or top-dose-only effect, or effect the other way; inactive means flat fitted curve, though single readings scatter; tested in HEK293 cells; note: % is set by controls: 0 for no effect and ±100 for the full control effect; nearly all actives have a fitted effect of over 50% in size; luciferase read-out
Cruzain inh Det: qHTS Assay for Promiscuous and Specific Inhibitors of Cruzain (with detergent); Cruzipain (Trypanosoma cruzi), P25779; 200,000 compounds, 0.43% hits; Potency, µM, for inactives: max response, negative = inhibition, usual class: inhibitors; purified cruzain, Z-FR-AMC fluorescence, 0.01% Triton; active = well fitted curve in the direction sought with a large enough effect; inconclusive = small, poorly fitted or top-dose-only effect, or another doubt; inactive = no such curve, though single readings can be large; an effect the other way counts as inactive or inconclusive;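 note: plate controls were neutral wells for no effect and buffer without enzyme for full effect; nearly all actives have a fitted effect of over 40% in size; top concentration of the series not given in the record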
Target sequence (P25779 123-467 limits assumed): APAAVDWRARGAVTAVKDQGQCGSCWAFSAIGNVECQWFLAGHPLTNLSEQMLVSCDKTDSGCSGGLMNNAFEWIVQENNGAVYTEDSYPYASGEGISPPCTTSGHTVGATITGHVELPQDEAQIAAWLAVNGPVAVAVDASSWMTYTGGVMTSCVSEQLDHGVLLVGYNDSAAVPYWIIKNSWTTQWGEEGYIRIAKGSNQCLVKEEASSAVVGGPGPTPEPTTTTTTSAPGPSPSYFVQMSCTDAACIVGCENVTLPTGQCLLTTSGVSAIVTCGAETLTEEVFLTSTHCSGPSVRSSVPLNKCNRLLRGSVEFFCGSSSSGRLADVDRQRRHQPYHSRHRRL
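Cruzain (1.5 nM) preincubated 15 min at RT with compound in 100 mM sodium acetate pH 5.5, 5 mM DTT, 0.01% Triton X-100. Reaction started with 2 uM Z-FR-AMC; AMC fluorescence (ex 360/em 450 nm) change over 60 s gave rate.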
Cruzain inh noDet: qHTS Assay for Promiscuous and Specific Inhibitors of Cruzain (without detergent) | purified cruzain, Z-FR-AMC fluorescence, no detergent | Potency, µM, for inactives: max response, negative = inhibition, usual class: inhibitors | 200,000 compounds, 2.3% hits | AID 1476, 2009; active = well fitted curve in the direction sought with a large enough effect; inconclusive = small, poorly fitted or top-dose-only effect, or another doubt; inactive = no such curve, though single readings can be large; an effect the other way counts as inactive or inconclusive;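 note: plate controls were enzyme without inhibitor for no effect and buffer without enzyme for full effect; nearly all actives have a fitted effect of over 40% in size; top concentration of the series not given in the record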
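Purified cruzain at 1.5 nM, pre-incubated 15 min with compound at room temperature in 100 mM sodium acetate pH 5.5, 5 mM DTT, 0.00005% Triton X-100. Reaction started with 2 uM Z-FR-AMC; AMC fluorescence increase over 60 s gives rate.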
SARS PLpro yeast: qHTS of Yeast-based Assay for SARS-CoV PLP; S. cerevisiae expressing SARS-CoV PLpro, growth rescue; control for the full effect not named in the record; Potency, µM (series often up to 32.9 µM), for the others: at the top dose activity, positive = growth rescue; 330,000 compounds, 0.19% hits; AID 485353, 2010; note: 0% is about no effect; nearly all actives have a fitted effect of over 55% in size; growth read by luminescence after 48 h
Active calls of the source: *; ? = inconclusive; nt = not tested or not shown; [ ] = remark or other dose. Unless noted, calls come from the whole dose curve; as a rule, active means well fitted rising curve with a large enough effect; inconclusive means small, poorly fitted or top-dose-only effect; inactive means no such curve, though single readings can be large or run the other way. Potency is the fitted concentration of half-maximal effect.

[1] NC(=O)c1cc[n+](Cc2ccc([N+](=O)[O-])cc2)cc1
[2] COC(=O)c1ccc(NC(=O)CN2CCN(CCO)CC2)cc1
[3] O=C(NCC1CCCO1)C1CCCN(S(=O)(=O)c2ccc(Br)cc2)C1 (stereo not given)
[4] Cc1ccc2c(c1)C(c1ccc(F)cc1)N(C(=O)c1ccc(S(=O)(=O)N(C)C)cc1)CC(=O)N2 (stereo not given)
[5] c1ccc2c(c1)ncn2CCOCCOCCn1cnc2ccccc21
Compound	1	2	3	4	5
Cruzain inh noDet	nt	nt	nt	nt	-7%
MARV entry inh	nt	?	3%[46.1 µM]	nt	-16%
LASV entry inh	nt	-10%[46.1 µM]	-5%[46.1 µM]	nt	-14%
SARS PLpro yeast	0%	6%	-3%	2%	-4%
2A StopGo	-10%	45%[activator]	-2%	0%	-25%
RE007 growth inh	-12%	9%	2%	-8%	8%
Cruzain inh Det	nt	nt	nt	nt	2.4%
NS1 inh	19%	-2%	13%	-3%	18%

[6] CC(C)C1Nc2ccc(C(=O)NCCCN3CCOCC3)cc2NC1=O (stereo not given)
[7] COCCNC(=S)NN(c1ccccc1)c1ccccc1
[8] NCc1ccc(-c2nc3ccccc3o2)cc1
[9] CCc1ccc2[nH]c(C(=O)Nc3ccc(C)c(F)c3)cc2c1
[10] O=C(Nc1cc(F)ccc1F)c1cccc(-n2cnnn2)c1
Compound	6	7	8	9	10
Cruzain inh noDet	nt	nt	13µM*	nt	nt
MARV entry inh	1%[46.1 µM]	5%[46.1 µM]	-4%	-6%[46.1 µM]	-7%[46.1 µM]
LASV entry inh	23%	?	nt	0%[46.1 µM]	0%
SARS PLpro yeast	-5%	1%	2%	0%	1%
2A StopGo	-3%	-15%	nt	18%	-22%
RE007 growth inh	-17%	9%	nt	9%	3%
Cruzain inh Det	nt	nt	-2.3%	nt	nt
NS1 inh	2%	?	-18%	-6%	nt

[11] CC(=O)Nc1ccc(S(=O)(=O)C(C#N)c2nc3ccccc3nc2NCCCO)cc1 (stereo not given)
[12] Cc1ccc(/C=C/C(=O)O)cc1S(=O)(=O)NCc1ccco1
[13] CCOC(=O)Cn1c(=O)oc2cc(S(=O)(=O)NC3CCCCC3)ccc21
[14] CCc1nnc(NC(=O)CSc2ncnc3c2cnn3-c2ccc(OC)cc2)s1
[15] C=C(C)n1c(=O)[nH]c2ccccc21
Compound	11	12	13	14	15
Cruzain inh noDet	nt	nt	nt	-9%	-1%
MARV entry inh	9%[46.1 µM]	1%[46.1 µM]	nt	?	-3%[46.1 µM]
LASV entry inh	-23%	11%[46.1 µM]	nt	-26%	-3%
SARS PLpro yeast	-2%	0%	1%	0%	-7%
2A StopGo	-12%	28%	21%	3%	11%
RE007 growth inh	1%	-21%	8%	0%	-7%
Cruzain inh Det	nt	nt	nt	5.2%	3.8%
NS1 inh	2%	4%	-3%	9%	?

Single records (already shown):
Entry for CC(=O)Nc1ccc(S(=O)(=O)C(C#N)c2nc3ccccc3nc2NCCCO)cc1 (stereo not given) → Cruzain inh noDet: nt; MARV entry inh: 9%[46.1 µM]; LASV entry inh: -23%; SARS PLpro yeast: -2%; 2A StopGo: -12%; RE007 growth inh: 1%; Cruzain inh Det: nt; NS1 inh: 2%
Entry for Cc1ccc(/C=C/C(=O)O)cc1S(=O)(=O)NCc1ccco1 → Cruzain inh noDet: nt; MARV entry inh: 1%[46.1 µM]; LASV entry inh: 11%[46.1 µM]; SARS PLpro yeast: 0%; 2A StopGo: 28%; RE007 growth inh: -21%; Cruzain inh Det: nt; NS1 inh: 4%

The results go on:
[16] COc1ccccc1CNC(=O)c1cccc(Nc2nc3ccccc3n3nnnc23)c1
[17] C=CCC1(N(C(C)=O)c2ccccc2C)CCCCC1
[18] CCCCCC(=O)N(O)C1CC(=O)N(c2ccccc2)C1=O (stereo not given)
[19] CC(c1nccs1)N(C)C(=O)CCc1nnc(Cc2c[nH]c3ccccc23)o1 (stereo not given)
[20] COc1ccc(-c2nc(-c3ccccc3)c(-c3ccc(F)cc3)[nH]2)c(OC)c1C
Compound	16	17	18	19	20
Cruzain inh noDet	6%	nt	-2%	nt	-17%
MARV entry inh	3%[46.1 µM]	0%[46.1 µM]	-7%	nt	-11%[46.1 µM]
LASV entry inh	3%[46.1 µM]	2%	-17%	nt	3%[46.1 µM]
SARS PLpro yeast	nt	-1%	-16%	-1%	nt
2A StopGo	?	?	-19%	4%	-13%
RE007 growth inh	nt	-6%	10µM*	-3%	nt
Cruzain inh Det	-0.4%	nt	1.3%	nt	-17%
NS1 inh	nt	1%	-255%	0%	nt

[21] COc1ccc(CC(=O)NCCc2csc(-c3cccc(F)c3)n2)cc1OC
[22] O=C(N/N=C/c1cccnc1)C1CC1(c1ccccc1)c1ccccc1 (stereo not given)
[23] CCCNC(=O)CSc1nnc(-c2ccc(F)cc2)o1
[24] COc1ccc(OCC(=O)Nc2ccc(Cl)cc2)cc1
[25] CCOc1ccc(NC(=O)CCC(=O)NNC(=O)COc2ccccc2C)cc1
Compound	21	22	23	24	25
Cruzain inh noDet	3%	nt	nt	nt	nt
MARV entry inh	nt	?	nt	?	-1%[46.1 µM]
LASV entry inh	1%[46.1 µM]	-5%	nt	-29%[46.1 µM]	13%
SARS PLpro yeast	nt	2%	-1%	-2%	1%
2A StopGo	-15%	-19%	11%	-3%	48%[activator]
RE007 growth inh	nt	5%	0%	5%	-3%
Cruzain inh Det	-3.7%	nt	nt	nt	nt
NS1 inh	nt	nt	5%	-5%	3%

[26] COc1cc(NC(=O)CCN2CCN(c3ccccc3F)CC2)cc(OC)c1
[27] COc1ccc(O)c(C(C)(C)C)c1
[28] CNC(=O)CN(c1cc(OCCOC)c(Cl)cc1Cl)S(=O)(=O)c1ccc(OC)cc1
[29] O=C(/C=C/c1ccc(Cl)cc1)NCCc1ccccc1
[30] CCCOC(=O)c1c(NC(=O)CCC(=O)O)sc2c1CCCCC2
[31] CCCC1NC(C(=O)O)Cc2c1[nH]c1ccccc21 (stereo not given)
[32] CSc1nc2ccc(NC(=O)C3CCCO3)cc2s1 (stereo not given)
Compound	26	27	28	29	30	31	32
Cruzain inh noDet	3%	1%	nt	-6%	nt	nt	-5%
MARV entry inh	?	nt	19%[46.1 µM]	?	15%[46.1 µM]	-2%	?
LASV entry inh	-20%	nt	3%[46.1 µM]	-6%	1%[46.1 µM]	10%	?
SARS PLpro yeast	3%	-2%	0%	-4%	-5%	2%	-4%
2A StopGo	nt	-28%	-6%	19%	-12%	-4%	34%[activator]
RE007 growth inh	-14%	-13%[18.4 µM]	4%	-7%	-17%	-21%	-10%
Cruzain inh Det	2.7%	-1.4%	nt	-1.3%	nt	nt	1.5%
NS1 inh	-10%	2%	nt	-32%	nt	6%	-8%

By substructure, the entries above containing an aryl methoxy group
[14] CCc1nnc(NC(=O)CSc2ncnc3c2cnn3-c2ccc(OC)cc2)s1
[16] COc1ccccc1CNC(=O)c1cccc(Nc2nc3ccccc3n3nnnc23)c1
[20] COc1ccc(-c2nc(-c3ccccc3)c(-c3ccc(F)cc3)[nH]2)c(OC)c1C
[21] COc1ccc(CC(=O)NCCc2csc(-c3cccc(F)c3)n2)cc1OC
[24] COc1ccc(OCC(=O)Nc2ccc(Cl)cc2)cc1
[26] COc1cc(NC(=O)CCN2CCN(c3ccccc3F)CC2)cc(OC)c1
[27] COc1ccc(O)c(C(C)(C)C)c1
Compound	14	16	20	21	24	26	27
Cruzain inh noDet	-9%	6%	-17%	3%	nt	3%	1%
MARV entry inh	?	3%[46.1 µM]	-11%[46.1 µM]	nt	?	?	nt
LASV entry inh	-26%	3%[46.1 µM]	3%[46.1 µM]	1%[46.1 µM]	-29%[46.1 µM]	-20%	nt
SARS PLpro yeast	0%	nt	nt	nt	-2%	3%	-2%
2A StopGo	3%	?	-13%	-15%	-3%	nt	-28%
RE007 growth inh	0%	nt	nt	nt	5%	-14%	-13%[18.4 µM]
Cruzain inh Det	5.2%	-0.4%	-17%	-3.7%	nt	2.7%	-1.4%
NS1 inh	9%	nt	nt	nt	-5%	-10%	2%

[28] CNC(=O)CN(c1cc(OCCOC)c(Cl)cc1Cl)S(=O)(=O)c1ccc(OC)cc1
Compound	28
Cruzain inh noDet	nt
MARV entry inh	19%[46.1 µM]
LASV entry inh	3%[46.1 µM]
SARS PLpro yeast	0%
2A StopGo	-6%
RE007 growth inh	4%
Cruzain inh Det	nt
NS1 inh	nt

Screens as filed in PubChem.
